High-throughput results (PubChem)
Vaccinia mCherry: inhibitors of vaccinia virus infection (mCherry reporter signal) | Vaccinia virus mCherry reporter infection, fluorescence; about a quarter of the inactives have no number | 310,000 tested, 0.63% active | AID 720579 | Potency, µM (highest dose often 36.5 µM), for the others: top-dose activity change, negative = inhibition, most hits filed as inhibitors; active = well fitted inhibition curve with a large enough effect; inconclusive = small, poorly fitted or top-dose-only effect; inactive = no such curve, though single readings can be large or run the other way; tested in A549 cells; note: nearly all actives have a fitted effect of over 35% in size; inactives centre near -10
Vaccinia Venus: vaccinia inhibition (Venus reporter). Vaccinia virus Venus reporter expression, fluorescence. Potency, µM (top dose mostly 36.5 µM), for the others: top-dose activity change, negative = inhibition, most hits filed as inhibitors. 330,000 tested, 0.46% active; active means well fitted inhibition curve with a large enough effect; inconclusive means small, poorly fitted or top-dose-only effect; inactive means no such curve, though single readings can be large or run the other way; tested in A549 cells; note: nearly all actives have a fitted effect of over 30% in size; inactives centre near -10
* marks the source's active call; other numbers are inactive results; i = inactive; ? = inconclusive; . = not tested or not shown; & = joins results of further samples; [ ] = dose if it differs, or a comment. % is set by controls: 0 for no effect and ±100 for the full control effect; potency is the fitted concentration of half-maximal effect.

SMILES | Vaccinia mCherry | Vaccinia Venus
Cc1cccnc1NC1OC(=O)c2ccccc21 (configuration not stated) | -9% | 0%
COc1ccc2c(c1)-c1nc(-n3ncc(C(=O)NCc4cccc(C)n4)c3C3CC3)ncc1CC2 | -3% | -3%
Cc1ccc(S(=O)(=O)Cc2cccc(C(=O)N3CCOCC3)c2)cc1 | . | 3%
O=C(Cc1cccc(NC(=O)C2CCCN(C(=O)C3CCCC3)C2)c1)Nc1ccc(C(=O)N2CCCCC2)cc1 (configuration not stated) | i | -12%
Cc1ccccc1CNC1CCCCC1 | -1% | -15%
COc1nnc(-c2ccc(C)c(S(=O)(=O)NCC3CCCO3)c2)c2ccccc12 (configuration not stated) | -3% | 0%
COC(=O)c1cc(CNC(=O)CC(C)c2ccccc2)ccc1OC (configuration not stated) | 32%[activator] | -3%
Cc1cc(=O)oc2c3c4c(cc12)OCCN4CCC3 | ? | -28%
O=C1CN(S(=O)(=O)c2ccc(Br)cc2)c2ccccc2N1 | 8% | -4%
O=[N+]([O-])c1ccc2c(c1)S(=O)c1ccccc1-2 (configuration not stated) | i | -10%
O=C(CCCNC(=O)c1ccc(Cl)cc1)OCc1cccc(Br)c1 | i | -10%
COc1ccc(C/C(N)=N/OC(=O)Cc2ccccc2)cc1OC | -6% | -4%
CCOC(=O)c1c(C)nc2sc3c(=O)n(-c4ccc(C(C)=O)cc4)cnc3c2c1-c1ccc(Cl)cc1 | -21% | -5%
Cc1c(CCC(=O)N2CCC(C(=O)O)(c3ccccc3)CC2)c(=O)oc2cc3oc4c(c3cc12)CCCC4 | -10% | 2%
CCc1cccc(CC)c1NC(=O)COC(=O)c1ccccc1-c1nc2ccccc2s1 | -19% | -15%
COc1ccccc1N(CC(=O)NCCN1CCOCC1)S(=O)(=O)c1ccccc1 | -14% | -3%
CN1CCN(S(=O)(=O)c2cccc(C(=O)Nc3nccs3)c2)CC1 | -2% | -5%
COc1ccc(CCNC(=O)C(=O)Nc2nccs2)cc1OC | -22% | -22%
Cc1cc2c(c(SCC(=O)N(C)c3ccccc3)n1)C(=O)OC2 | -3% | 4%
CN1CCCC1(C)C(=O)Nc1ccc(-n2cccc2)cc1 (configuration not stated) | -8% | 20%
COc1ccccc1C1=NOC(COC(=O)c2ccc3ccccc3n2)C1 (configuration not stated) | -12% | -8%
CCCCNC(=O)Cn1c(=O)oc2cc(S(=O)(=O)N3CC(C)CC(C)C3)ccc21 (configuration not stated) | i | -10%
O=C(C[N+]12CCC(CC1)C(CO)C2)c1ccc([N+](=O)[O-])cc1 (configuration not stated) | i | -3%
O=[N+]([O-])c1cc(O)c(O)c([N+](=O)[O-])c1 | 6% | -14%&2%
Cc1ccc(Cn2c(=O)c3cccnc3n(CC(=O)Nc3cc(Cl)ccc3C)c2=O)cc1 | -20% | -8%

Complete entries as entered above. Screens in order: Vaccinia mCherry | Vaccinia Venus
`COC(=O)c1cc(CNC(=O)CC(C)c2ccccc2)ccc1OC` (configuration not stated) is listed with 32%[activator] | -3%
`CCCCNC(=O)Cn1c(=O)oc2cc(S(=O)(=O)N3CC(C)CC(C)C3)ccc21` (configuration not stated) is listed with i | -10%
`Cc1cccnc1NC1OC(=O)c2ccccc21` (configuration not stated) is listed with -9% | 0%
`O=C(CCCNC(=O)c1ccc(Cl)cc1)OCc1cccc(Br)c1` is listed with i | -10%

Quoted at random: 6 compounds from above, in no set order.
SMILES | Vaccinia mCherry | Vaccinia Venus
O=C(Cc1cccc(NC(=O)C2CCCN(C(=O)C3CCCC3)C2)c1)Nc1ccc(C(=O)N2CCCCC2)cc1 (configuration not stated) | i | -12%
COc1ccccc1C1=NOC(COC(=O)c2ccc3ccccc3n2)C1 (configuration not stated) | -12% | -8%
COc1nnc(-c2ccc(C)c(S(=O)(=O)NCC3CCCO3)c2)c2ccccc12 (configuration not stated) | -3% | 0%
COc1ccccc1N(CC(=O)NCCN1CCOCC1)S(=O)(=O)c1ccccc1 | -14% | -3%
Cc1cc2c(c(SCC(=O)N(C)c3ccccc3)n1)C(=O)OC2 | -3% | 4%
COc1ccc(CCNC(=O)C(=O)Nc2nccs2)cc1OC | -22% | -22%

Carrying on.
SMILES | Vaccinia mCherry | Vaccinia Venus
COc1cccc(CNC(=O)c2ccc(OC)c(S(=O)(=O)NC3CCCC3)c2)c1 | -16% | -11%
COc1cccc(CNC(=O)CCC2CCCN(C(=O)CCn3cncn3)C2)c1 (configuration not stated) | -6% | -11%
CCCCC(=O)Nc1ncc([N+](=O)[O-])s1 | -2% | -1%
O=C(NCC1CCCO1)C(c1ccc(F)cc1)N(Cc1ccc2c(c1)OCO2)C(=O)c1ccc(CN2CCOCC2)o1 (configuration not stated) | i | -11%
O=c1ccn(-c2cccc(C(F)(F)F)c2)nc1-c1ccn(-c2ccccc2)n1 | . | -27%
COc1cc(OC)cc(C(=O)N[C@H](C(=O)NCc2ccccc2)C(C)C)c1 | i | -13%
CCOc1ccc(Nc2ncnc3scc(-c4ccc(OC)cc4)c23)cc1 | -13% | 0%
CCCNC(=S)NC1CC2CCCC(C1)N2Cc1ccccc1OC (configuration not stated) | i | -5%
C=CCN1c2ccccc2[C@]23C[C@@H](C(=O)OC)N(C(=O)CC(C)C)C2=NC(C(=O)OC)=C(C(=O)OC)[C@H]13 | i | -27%
CCC(=O)N1CCc2cc(S(=O)(=O)CCC(=O)NCCc3ccc(OC)c(OC)c3)ccc21 | -8% | -6%
CCN(CC)c1ccc(/C=N/NC(=O)OC(C)(C)C)cc1 | i | -4%
CCOC(=O)C(C)Sc1nc2c(cnn2-c2ccc(C)cc2)c(=O)[nH]1 (configuration not stated) | ? | -29%
CCS(=O)(=O)NCc1c(C)ncc2c1CCN(C(=O)c1csc(-c3cccs3)n1)C2 | -5% | 0%
CCCOc1ccc(C(=O)NC(=S)N2CCN(c3ncc4c(=O)c(C(=O)O)cn(CC)c4n3)CC2)cc1 | i | ?
Cc1ccc(C(=O)Nc2nnc(S(=O)(=O)N3CCc4ccccc43)s2)cc1 | -12% | -11%
CC(=O)N1c2ccc(S(=O)(=O)N3CCC(C(=O)NCc4ccc(Cl)cc4)CC3)cc2CC1C (configuration not stated) | -19% | ?
Cc1ccc(S(=O)(=O)N2CCCC2CNC(=O)C(=O)NCc2ccc3c(c2)OCO3)cc1 (configuration not stated) | -24% | ?
COc1ccc(CC(=O)N2CCC(Nc3nc4ccccc4n3Cc3ccc(F)cc3)CC2)cc1 | -20% | -20%
O=C1CC(c2ccccc2)CC(=O)C1Sc1ccc(Cl)cc1 (configuration not stated) | -2% | -14%
COc1ccc(CCC(=O)NCCCNC(=O)CCc2ccc(OC)cc2)cc1 | -8% | 3%
CCn1c(SCc2ccc(C#N)cc2)nnc1-c1cccc(Cl)c1 | -14% | -11%
O=C(C[C@H]1CC[C@@H](NC(=O)Cc2cccnc2)[C@@H](CO)O1)NCc1ccc2c(c1)OCO2 | -9% | -4%
O=C(NCc1nnc(SCC(=O)N2CCOCC2)o1)c1ccccc1 | -14% | -5%
CCc1ccc(C(=O)/C=C2\Sc3ccccc3NC2=O)cc1 | -3% | 0%
Cn1c(SCCC#N)nnc1-c1ccccc1F | -9% | -7%

Compounds shown so far containing a cyano group, in the order listed:
SMILES | Vaccinia mCherry | Vaccinia Venus
CCn1c(SCc2ccc(C#N)cc2)nnc1-c1cccc(Cl)c1 | -14% | -11%
Cn1c(SCCC#N)nnc1-c1ccccc1F | -9% | -7%

New compounds follow.
SMILES | Vaccinia mCherry | Vaccinia Venus
O=C(COc1ccc([N+](=O)[O-])cc1)NNC(=S)NC(=O)c1ccc(Br)cc1 | -2% | -12%
COc1ccc(/C=N/NC(=O)c2[nH]c3ccc(Br)cc3c2-c2ccccc2)c(C(=O)O)c1OC | i | ?
CCOC(=O)N1CCN(C(=O)CCN2C(=O)/C(=C\c3cccc(OC)c3)SC2=S)CC1 | i | -1%
O=C1NC(c2ccc(Br)cc2)=N/C1=C/c1ccco1 | -11% | 1%
CC(C)(C)c1ccc(-n2ncc3c2CCCC3NC(=O)CN2CCCC2=O)cc1 (configuration not stated) | -24% | -25%
CCCn1nnc(NC(=O)COc2ccccc2Cl)n1 | -11% | -10%
Nc1c(-c2ccc(C(F)(F)F)cc2)nc2ncccn12 | ? | -6%
CC(OC(=O)c1ccc(F)cc1)C(=O)Nc1nc(-c2cccc([N+](=O)[O-])c2)cs1 (configuration not stated) | i | -3%
O=C(NCc1cccnc1)C(=O)NCC1OCCN1S(=O)(=O)c1cc(F)ccc1F (configuration not stated) | i | 17%
O=[N+]([O-])c1cccc(NC(=S)N2CCN(c3ccccn3)CC2)c1 | -18% | -10%
O=C(N/N=C\c1c[nH]c2ccccc12)c1ccc(O)cc1 | i | -9%
O=C(CNC(=O)c1ccc(Br)cc1)Nc1ccc2c(c1)CCC2 | -9% | -17%
COC(=O)C(C)Sc1ncnc2c1c(-c1ccccc1)cn2-c1ccc(F)cc1 (configuration not stated) | -14% | -7%
Cc1ccc(C(C)C)c(OCCCn2ccnc2C)c1 | -7% | -20%
Cc1cc(C)cc(NC(=O)CSc2nnc(COc3ccccc3Cl)o2)c1 | 8% | 20%
Cc1cc(C)c2c3c(sc2n1)C(=O)N(c1ccccc1)CC(=O)N3 | -6% | 9%
O=C1OC(c2ccc(Cl)cc2)=C/C1=C/c1cccnc1 | -12% | -6%
COc1ccc2c(c1)n([O-])c1c([n+]2=O)CCC1 | i[7.34 µM] | -20%[7.34 µM]
CCOC(=O)c1cc(-c2ccc(N3CCOCC3)cc2)nn1-c1ccccc1 | -5% | -25%
C/C(N)=C(/C#N)C(=O)CSc1nc2scc(-c3ccccc3)c2c(=O)n1C | i | -10%
O=C(O)/C(=C/c1cccnc1)NC(=O)c1ccccc1 | -9% | -10%
CC(C)c1ccc(NC(=O)c2cccc(NC3=NC4CS(=O)(=O)CC4S3)c2)cc1 (configuration not stated) | i | -18%
CC12CCCc3c(O)cc(=O)n(c31)-c1ccccc12 (configuration not stated) | -13% | 8%
Cc1ccc(NC(=O)CCN2CCc3ccccc3C2)cc1 | -9% | -11%
CN(c1ccccc1)S(=O)(=O)c1ccccc1Br | -14%&-17% | -2%&-18%
SMILES | Vaccinia mCherry | Vaccinia Venus
CN1CCN(S(=O)(=O)c2cccc(C(=O)Nc3sc4c(c3C(N)=O)CCCC4)c2)CC1 | -8% | -17%
COc1ccc(OCCn2c(C3CC(=O)N(c4ccc(F)cc4)C3)nc3ccccc32)cc1 (configuration not stated) | -6% | -11%
C=CCc1c(C)nc(-c2ccccc2)nc1Nc1ccc(O)cc1 | ? | ?
COc1ccc(CCn2c(N)c(C#N)c3nc4ccccc4nc32)cc1OC | . | -26%
COc1ccc(Cl)cc1NC(=O)c1cc2c(s1)-c1ccccc1OC2 | -8% | 4%
CCN(CC)CCNC(=O)c1cccc(NC(=O)C(=O)c2cc(Br)ccc2NC(C)=O)c1 | -19% | -28%
COc1ccc(CC(N)c2csc(Nc3ccccn3)n2)cc1 (configuration not stated) | -21% | -20%
Cn1ccc2c(OCC(=O)NCc3ccccc3)cccc2c1=O | -14% | -3%
Cc1ccsc1C(=O)C1CCCN(Cc2sc(N(C)C)nc2Cl)C1 (configuration not stated) | i | -1%
C[C@@H]1CN([C@H](C)CO)C(=O)CCCn2nncc2CO[C@H]1CN(C)C(=O)NC1CCCCC1 | i | -14%
CCOC(=O)CC(NS(=O)(=O)c1ccc(NC(C)=O)cc1)c1ccc(OCC)cc1 (configuration not stated) | i | -11%
O=C(CSc1nnc(-c2ccc(O)cc2)o1)c1ccc(Br)cc1 | -11% | -11%
Cc1nn(CCCC(=O)NCc2ccccc2)c(=O)c2c1sc1ccccc12 | -13% | -6%
O=C(NNC(=O)c1cc2ccccc2oc1=O)c1ccccc1 | -13% | -10%
COc1ccccc1N1CCN(S(=O)(=O)c2c(C)sc3ncn(CC(=O)Nc4ccccc4F)c(=O)c23)CC1 | -18% | -17%
O=C(O)c1ccc(Oc2nc3ccccc3s2)cc1 | -15% | 0%
O=C(Nc1ccccc1Cl)O/N=C/c1ccncc1 | -19% | -11%
Cc1nn(-c2nc(-c3ccc(F)cc3)cc(C(F)(F)F)n2)c(C)c1Br | -16% | -13%
CN(Cc1ccccc1)c1ccc(-c2nc(-c3ccco3)no2)cc1[N+](=O)[O-] | -9% | 4%
Cc1ccc(NC(=O)COc2coc(CN3CCc4ccccc43)cc2=O)c(C)c1 | -21% | -17%
CC(C)c1ccc2oc(-c3cc(NC(=O)c4cccs4)ccc3Cl)nc2c1 | -4% | -5%
Cc1c(Cl)cccc1NC(=O)CSc1ncc2c(n1)-c1ccccc1N(C)S2(=O)=O | -6% | 13%
O=C(NCc1ccco1)C12CC3CC(CC(C3)C1)C2 | . | -10%
Cc1cc(C)n(-c2nc3ccccc3nc2Nc2cc(C(=O)O)ccc2C)n1 | -8% | -1%
O=C(Cc1cccs1)NC1CC(=O)N(c2cccc(F)c2)C1 (configuration not stated) | -2% | -10%
SMILES | Vaccinia mCherry | Vaccinia Venus
Cc1ccc(S(=O)(=O)N2[C@H](CC(=O)c3cccs3)OC[C@@H]2C)cc1 | -27% | -8%
COC(=O)c1ccc(COc2ccccc2/C=C(\C#N)C(=O)Nc2ccc(C)cc2C)cc1 | i | -2%
CC(=O)c1ccc(Oc2ccc(C(C)=O)cc2)cc1 | -9% | -4%
OC(c1ccco1)c1nc(-c2ccc(F)c(Cl)c2)cs1 (configuration not stated) | i | -5%
CCC(CNC(=O)c1c(C)nn(-c2ccccc2)c1Cl)c1ccccc1 (configuration not stated) | -6% | -5%
Cc1ccc(NS(=O)(=O)c2ccc(C)c(C(=O)N3CCN(C)CC3)c2)cc1 | -2% | 9%
CSCCC(C)N1CCC(Oc2ccc(C(=O)N3CCCC3)cc2)CC1 (configuration not stated) | -17% | 1%
CN(Cc1ccccc1)c1ccc2cc(S(=O)(=O)N3CCCCC3)ccc2n1 | -4% | -3%
